# Bioassay records deposited in PubChem by National Center for Advancing Translational Sciences (NCATS).
# StopGo RLuc: FMDV 2A StopGo reporter, Renilla signal; actives 0.32% (n = 120,000); HEK cells with a luciferase reporter of 2A StopGo recoding; Potency, µM (top dose mostly 57.5 µM), without a hit: at the top dose signal change, negative = less light; active means well fitted falling curve with a large enough effect; inconclusive means small, poorly fitted or top-dose-only effect; inactive means no such curve, though single readings can be large or run the other way; also: nearly all actives have a fitted effect of over 55% in size; overnight with compound
# StopGo FLuc: FMDV 2A StopGo reporter, firefly signal. HEK cells with a luciferase reporter of 2A StopGo recoding. Potency, µM (top dose mostly 57.5 µM), without a hit: at the top dose signal change, negative = less light. actives 0.23% (n = 120,000); active = well fitted falling curve with a large enough effect; inconclusive = small, poorly fitted or top-dose-only effect; inactive = no such curve, though single readings can be large or run the other way; also: nearly all actives have a fitted effect of over 60% in size; overnight with compound
# Active calls of the source: *; ? = inconclusive; & = joins results of further samples; [ ] = remark or other dose. % is scaled to controls: 0 for no effect and ±100 for the full control effect; potency is read from the fitted curve at half-maximal effect. This is a subset. The share of hits here may be higher or lower than overall.
SMILES,StopGo RLuc,StopGo FLuc
Cc1ccc2c(C)c(C(=O)N(Cc3ccc(N(C)C)cc3)Cc3ccco3)oc2c1C,-8%,26%
Cc1ccc(-c2nc(SCc3ccc(Br)cc3)n3[nH]c(=O)cc3n2)cc1,34%[activator],35%[activator]
COc1ccc2oc(=O)c(C(=O)NCCc3c(C)[nH]c4ccccc34)cc2c1,-1%,0%
O=C(NCCc1ccc(Cl)cc1)c1ccc(CSCc2ccccc2Cl)o1,-10%,-9%
COc1ccccc1C(C)NC(=O)c1cc(=O)[nH]c2ccccc12 (stereo not given),-18%,-10%
NS(=O)(=O)c1ccc(CCNc2ncnc3c2cnn3-c2ccc(F)cc2)cc1,-20%,74%[activator]
CCN(CC)CCCNC(=O)C(=O)Nc1cccc2[nH]ccc12,-3%,0%
CCn1c(/C(C#N)=C/c2ccccc2Cl)nc2ccccc21,23%,-14%
CC1=C(C(=O)OCc2ccc(C)cc2)C(c2cc3c(cc2Br)OCO3)CC(=O)N1 (stereo not given),2%,-17%
Cc1ccccc1NC(=O)C1CC(=O)Nc2nc(SCc3ccccc3)nn21 (stereo not given),5%,7%
O=C(Cn1ccc2cc(S(=O)(=O)N3CCCCCC3)ccc21)NCc1cccc(Cl)c1,151%[activator],-13%
O=S(Cc1cccc(C(F)(F)F)c1)Cc1c(Cl)cccc1Cl (stereo not given),12%,-26%
CCc1nnc2sc(-c3cccc(NC(=O)Cc4ccccc4)c3)nn12,50%[activator],0%
N#CCOc1ccc2[nH]cc(C(C(=O)O)N3CCN(Cc4cccnc4)CC3)c2c1 (stereo not given),-14%,-4%
Cc1cccc(CCNC(=O)c2cc3c(=O)n(C)c4ccccc4c3n2C)c1,-9%,-18%
CCOc1ccccc1OCCN[C@H](C)Cc1ccc(OC)c(S(N)(=O)=O)c1,-9%,-12%[11.5 µM]
Cn1nnc2c(N3CCN(c4cccc(C(F)(F)F)c4)CC3)ncnc21,2%,-7%
CCCn1c(CCCNC(=O)c2ccccc2OC)nc2ccccc21,25%,30%
COc1ccc(NCc2nnc3n2CCCCC3)c(OC)c1,-10%,-4%
COc1ccc(CCNC(=O)C2CC(c3cc(OC)c(OC)c(OC)c3)=NO2)cc1OC (stereo not given),0%,0%
CCn1c(=O)sc2cc(NS(=O)(=O)c3ccc(C)cc3)ccc21,322%[activator],440%[activator]
COC(=O)NC(NC(=O)OC)C(Cl)Cl,4%,6%
Cc1ccc(NC(=O)Cc2nnc(SCC(=O)c3ccc(C#N)cc3)n2C)cc1,1%,-16%
COC(=O)c1ccc(OC)c(CN2CCCN(Cc3ccc(C)cc3)S2(=O)=O)c1,8%,-1%
CC(OC(=O)C12CC3CC(CC(Cl)(C3)C1)C2)C(=O)c1c[nH]c2ccccc12 (stereo not given),7%,0%
Cc1c(O)ccc2c(CN(C)CCOc3ccccc3)cc(=O)oc12,?,?
O=C(COC(=O)c1cc(-c2ccccc2)nc2ccccc12)NC1CC1,9%,0%
Fc1ccccc1N1CCN(c2ncc3c(n2)CCN(Cc2cc(Br)cs2)C3)CC1,-13%,-7%
CCC(C(=O)Nc1c(C)cc(C)cc1C)n1c2ccccc2c2nc(=O)cc(C)n21 (stereo not given),-6%,-14%
c1coc(-c2nc(-c3cccs3)no2)c1,-13%,143%[activator]
O=C1/C(=C/c2cccs2)Oc2cc(O)ccc21,24%&10%,195%&188%[activator]
Cc1[nH]c2ccc(F)cc2c1CC(=O)N1CCCC1,6%,3%
Cc1ccc(NC(=O)CCn2nc(-c3ccccc3)c3ccccc3c2=O)cc1,-2%,3%
Cc1cc(C)c2oc(=O)cc(CN3CCOCC3)c2c1,22%,0%
Cc1ccc(NC(=O)COCc2cc(-c3ccc(F)cc3)on2)cc1Cl,-4%,4%
COc1ccc(/C=N/NC(=O)C(O)(CC(C)C)CC(C)C)cc1,55%[activator],30%[activator]
CCC1CCCCN1S(=O)(=O)c1ccc2c(c1)c(=O)n(CC(=O)N1CCCC1)c(=O)n2C (stereo not given),2%,0%
O=S(=O)(Nc1nc2n(n1)C(c1ccccc1)C=C(c1ccc(Cl)cc1)N2)c1ccccc1 (stereo not given),10%,-6%
CC(C)OC(=O)c1ccc(NC(=O)CCc2ncc(-c3ccc(F)cc3F)o2)cc1,3%,0%
Cc1cc(Nc2cccc([N+](=O)[O-])c2)nc2ccccc12,-8%,49%[activator]
O=C(OCc1cccnc1)c1ccc(-c2ccccc2)cc1,-10%,11%
CCOc1ccccc1NC(=O)c1cc(-c2ccco2)nc2ccccc12,26%,23%
CCNC(=O)NC(=O)C(C)OC(=O)c1c(C)c(CC)nc2ccccc12 (stereo not given),-17%,-19%
O=C(CCn1cnc2onc(-c3ccc(F)cc3)c2c1=O)Nc1cccc(C(F)(F)F)c1,?,?
Cc1ccc(COc2ccc3ccccc3c2C=O)cc1,-2%,182%[activator]
CCNc1nc(-c2ccc3[nH]c(=O)oc3c2)cs1,52%[activator],255%[activator]
COc1cc(OC)cc(C(=O)Nc2ccc3oc(-c4ccc5ccccc5c4)nc3c2)c1,19%,64%[activator]
O=c1oc2c(F)cc(F)cc2cc1S(=O)(=O)c1ccc(F)cc1,130%[activator],0%
Cc1cc(S(=O)(=O)n2ccnc2C(C)C)cc([N+](=O)[O-])c1C,-10%,-16%
CC(C)NC(=S)N/N=C/C(Cl)=C/c1ccccc1,7%,19%
CCCN(Cc1ccc(OC)cc1)Cc1cc(=O)oc2ccc(OC)cc12,27%,-5%
COc1cc(CN(C(=O)c2ccc3c(c2)OCC(=O)N3)C2CC2)ccc1OC(F)F,-6%,?
COc1cccc2[nH]c(C(=O)NCCCc3nnc4ccccn34)cc12,18%,26%
N#Cc1cccnc1NCCNc1cnc2ccccc2n1,12%,7%
COc1ccc(CN2CCC(C(O)(c3ccccc3)c3ccccc3)CC2)c(OC)c1,1%,9%
CCCCNC(=O)c1cc(-c2ccccc2)nc2ccccc12,35%[activator],13%
Cc1cc(C(=O)COC(=O)c2ccccn2)c(C)n1Cc1ccccc1,-3%,36%[activator]
Cc1cccc(C)c1OCC(=O)Nc1ncn[nH]1,4%,7%
COC(=O)/C(C#N)=C/c1ccc(-c2c(Cl)cc(Cl)cc2Cl)o1,22%,0%
CN(Cc1ccccc1)C(=O)CNC(=O)Nc1ccccc1,21%,63%[activator]

# A section from the list above, as a working copy:
SMILES,StopGo RLuc,StopGo FLuc
Cc1cc(C(=O)COC(=O)c2ccccn2)c(C)n1Cc1ccccc1,-3%,36%[activator]
Cc1cccc(C)c1OCC(=O)Nc1ncn[nH]1,4%,7%

# (continued)
SMILES,StopGo RLuc,StopGo FLuc
CCc1ccc(-n2c(=O)c3sc4ccccc4c3n(CC(=O)NCc3ccccc3)c2=O)cc1,-10%,?
CNC(=O)CNC(=O)c1n[nH]c(=O)c2ccccc12,-13%,5%
CCN(CC)S(=O)(=O)c1ccc(NC(=O)COc2ccc3c(C)c(C)c(=O)oc3c2)cc1,9%,10%
CC(C)(C)C(=O)COC(=O)c1ccccc1Br,1%,22%
CNS(=O)(=O)c1ccc(Oc2ccc3c(C(C)C)cc(=O)oc3c2)c([N+](=O)[O-])c1,18%,-19%
O=C(NCCc1coc(-c2ccc(F)cc2)n1)Nc1ccc(F)cc1,24%,26%
COc1ccc(OC)c(NC(=O)COC(=O)c2ccc(Cl)c(S(=O)(=O)N3CCCC3)c2)c1,0%,7%
CCCn1c(COc2cccc(C)c2)nc2ccccc21,47%[activator],20%
Cc1cccc(Nc2nc(NCc3ccc(Cl)cc3)nc(N)c2[N+](=O)[O-])c1,13%,5%
Cc1cc(N2CCCCC2)nc2ccc(NC(=O)/C=C/c3ccc(OCCC(C)C)cc3)cc12,-7%,-20%
CCOc1ccccc1CNC(=O)CCc1c(C)nn(-c2ccc(N3CCCCC3)nn2)c1C,-14%,5%
COC(=O)C1=C(C)N=C2SCCC(=O)N2C1c1ccc(C(C)(C)C)cc1 (stereo not given),24%,18%
Cc1ncsc1CCCl,-1%,0%[11.5 µM]
COc1ccc(C(=O)Nc2oc3ccccc3c(=O)c2-c2ccc(Cl)cc2)cc1OC,25%,0%
O=C(Nc1ccc(C(F)(F)F)cc1)c1cc(N2C(=O)CCS2(=O)=O)ccc1Cl,-6%,-1%
O=C(/C=C/c1c[nH]c2ccccc12)C(F)(F)F,13%,19%
COc1ccc(C(C)NC(=O)CC(C)(C)C)cc1OC (stereo not given),14%,13%
Cc1nc2nc(CC(=O)Nc3ccccc3)nn2c(C)c1Cc1ccc(Cl)cc1,-6%,38%[activator]
O=c1c(Oc2ccccc2)coc2cc(O)ccc12,37%[activator],120%[activator]
COc1cc(NC(=O)Cn2nc(Cc3cccnc3)c3ccccc3c2=O)cc(OC)c1OC,-12%,-18%
CCN(CC)c1cc2c(cc1F)c(=O)c(S(=O)(=O)c1ccccc1)cn2C,45%[activator],-9%
CCCCN1CCN(c2nc3c(c(=O)[nH]c(=O)n3C)n2Cc2cc(C)ccc2C)CC1,-5%,2%
O=C(CCCOC(=O)c1c(Cl)ccc(Cl)c1Cl)c1ccc(F)cc1,3%,11%
Cc1ccccc1NC(=O)Nc1csc2c1CCCC2,-6%,83%[activator]

# A draw from above in order of heavy-atom count, rising.
SMILES,StopGo RLuc,StopGo FLuc
Cc1ncsc1CCCl,-1%,0%[11.5 µM]
O=c1c(Oc2ccccc2)coc2cc(O)ccc12,37%[activator],120%[activator]
COC(=O)/C(C#N)=C/c1ccc(-c2c(Cl)cc(Cl)cc2Cl)o1,22%,0%
COc1ccc(C(=O)Nc2oc3ccccc3c(=O)c2-c2ccc(Cl)cc2)cc1OC,25%,0%
CCN(CC)S(=O)(=O)c1ccc(NC(=O)COc2ccc3c(C)c(C)c(=O)oc3c2)cc1,9%,10%

# Individual results from the entries so far:
# Reading for Cc1cc(S(=O)(=O)n2ccnc2C(C)C)cc([N+](=O)[O-])c1C in StopGo RLuc: -10%
# Reading for Cc1cccc(CCNC(=O)c2cc3c(=O)n(C)c4ccccc4c3n2C)c1 in StopGo RLuc: -9%

# Further records.
SMILES,StopGo RLuc,StopGo FLuc
Cc1nc2cc(NC(=O)c3cc(S(=O)(=O)Nc4ccc(C)c(Cl)c4)ccc3Cl)ccc2o1,166%[activator],60%[activator]
CC(CNC(=O)c1cc2ccccc2oc1=O)(c1ccccc1)c1ccccc1,6%,14%
NS(=O)(=O)c1ccc(N/N=C/c2cccc(Br)c2)c([N+](=O)[O-])c1,16%,0%
O=C(Nc1ccc2nc(SCC(=O)N3CCc4ccccc43)sc2c1)c1cccc(Cl)c1,0%,-3%
Cc1ccccc1Nc1nnc(-c2ccc(C)c(S(=O)(=O)N3CCOCC3)c2)c2ccccc12,14%,-7%
COc1ccc2c(c1)CCc1c(C(=O)Nc3c(C)nn(Cc4ccc(Cl)c(Cl)c4)c3C)noc1-2,-6%,-18%
COc1ccc(/C=N/O)c(OC)c1,-1%,0%
O=C(Nc1ccc2oc(-c3cccc(F)c3)nc2c1)c1cccc([N+](=O)[O-])c1,0%,0%
CC(C)Cn1c(SCc2noc(-c3ccc(Cl)cc3)n2)nnc1N1CCOCC1,?,?
O=c1c2cc(Br)ccc2ncn1Cc1ncc(-c2ccccc2)o1,25%,85%[activator]
Cn1cc(-c2cc3n(n2)CCC(=O)N3CC(=O)O)c2ccccc21,18%,75%[activator]
Cc1ccc(-c2cc(C(=O)NCCc3ccccc3)c3c(-c4ccc(C)cc4)[nH]nc3n2)cc1,11%,25%
COc1cc(OC)c(NC(=O)c2c(C)oc3nc(C)nc(N4CCOCC4)c23)cc1Cl,-7%,-19%
COc1ccc2nc(C(=O)Nc3ccccc3OC)ccc2c1,2%,235%[activator]
COCCN1C(=O)c2ccccc2C(C(=O)Nc2ccc(C(C)=O)cc2)C12CCCC2 (stereo not given),-1%,9%
O=C(OCC(=O)c1ccc[nH]1)c1cccc(NS(=O)(=O)c2ccccc2)c1,-7%,39%[activator]
CC1CCc2c(C(=O)NC3CCCc4ccccc43)csc2C1 (stereo not given),7%,76%[activator]
CCc1ccccc1N1C(=O)CN(S(=O)(=O)CC)CC1(C)C(=O)NC1CCCCC1 (stereo not given),-12%,0%
CCCCc1ccc(-n2nc3cc(C)c(NC(=O)c4ccc(C#N)cc4F)cc3n2)cc1,4%,-2%
Cc1cccc(C)c1NC(=O)Cn1c(=O)n(CCCS(=O)(=O)C2CCCCC2)c(=O)c2ccccc21,-11%,-19%
CCCCCCCOc1ccc(/C=C/C(=O)O)cc1OC,3%,127%[activator]
COc1ccc(OCc2nc(-c3cc(C)nc4ccccc34)no2)cc1,-1%,-3%
COc1ccc(CNC(=O)C2CCN(c3nc4ccc(C)cc4[nH]3)CC2)cc1,0%,-8%
Cc1ccc(-c2csc(-c3cc4ccccc4oc3=O)n2)cc1,-10%,1%
Cc1cc(=O)oc2cc(OCC(=O)N3CCOCC3)c(Cl)cc12,-11%,-3%
COc1ccc(CCNC(=O)CCc2c(C)nc3c4cccnc4nn3c2C)cc1OC,7%,8%
Cc1ccc(NC(=O)CCc2nnc3n(C)c(=O)c4sccc4n23)cc1C,14%,-16%
O=C(CCNC(=O)c1ccccc1)NCc1coc(-c2cccs2)n1,10%,9%
Cc1cc(C)cc(NC(=O)CSc2nc(-c3cccc(Cl)c3)nc3c2Cc2c(CO)cnc(C)c2O3)c1,6%,-10%
CCC(=O)c1sc(Nc2ccc(C)cc2C)nc1N,6%,188%[activator]
CCOc1ccc(OCC)c(NC(=O)CN(C)S(=O)(=O)c2ccc3[nH]c(=O)oc3c2)c1,46%[activator],-12%
O=C(Nc1ccc(C(F)(F)F)cc1)c1cc(S(=O)(=O)N2CCCc3ccccc32)ccc1F,-7%,-6%
CCc1cccc(C)c1NC(=O)c1cc(CN2CCCC2)on1,0%,-23%
CC(=O)c1ccc(N2CCN(S(=O)(=O)c3ccc4[nH]c5c(c4c3)CCCC5)CC2)cc1,?,?
